# Assay outcomes from PubChem BioAssay.
# MenB inh = Mtb MenB enzyme inhibition | AID 540299 | 0.43% of 100,000 active | inhibition, %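 (about 12 µg/mL by stock and volumes)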 | MenB enzyme assay, absorbance read-out; some hits fall short of the stated cut;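 active = mean of two replicates above 30%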;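 note: 0% = no compound and 100% = wells with inactive enzyme; the first replicate is given; strong numbers were not always called active; inactives centre near -10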
# Target sequence (P9WNP5 whole entry, looked up): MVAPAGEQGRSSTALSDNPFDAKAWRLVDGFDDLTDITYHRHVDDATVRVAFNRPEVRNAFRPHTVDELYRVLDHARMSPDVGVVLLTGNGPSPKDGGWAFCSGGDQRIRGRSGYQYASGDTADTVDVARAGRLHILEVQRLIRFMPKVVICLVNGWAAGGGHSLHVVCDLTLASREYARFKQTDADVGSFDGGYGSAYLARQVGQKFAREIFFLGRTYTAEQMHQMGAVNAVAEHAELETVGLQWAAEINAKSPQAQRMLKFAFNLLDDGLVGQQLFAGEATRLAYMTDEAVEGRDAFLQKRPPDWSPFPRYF
# Polio RdRp inh = poliovirus RNA polymerase inhibition; poliovirus polymerase elongation, fluorescence polarization; stronger effect = lower value; % elongation, % (compound at 16.7 µg/mL); P03300; 0.66% of 150,000 active; in the data active = % elongation below about 90%; note: some results filed as inactive read as strong as hits
# Target sequence (P03300 1749-2209 limits assumed): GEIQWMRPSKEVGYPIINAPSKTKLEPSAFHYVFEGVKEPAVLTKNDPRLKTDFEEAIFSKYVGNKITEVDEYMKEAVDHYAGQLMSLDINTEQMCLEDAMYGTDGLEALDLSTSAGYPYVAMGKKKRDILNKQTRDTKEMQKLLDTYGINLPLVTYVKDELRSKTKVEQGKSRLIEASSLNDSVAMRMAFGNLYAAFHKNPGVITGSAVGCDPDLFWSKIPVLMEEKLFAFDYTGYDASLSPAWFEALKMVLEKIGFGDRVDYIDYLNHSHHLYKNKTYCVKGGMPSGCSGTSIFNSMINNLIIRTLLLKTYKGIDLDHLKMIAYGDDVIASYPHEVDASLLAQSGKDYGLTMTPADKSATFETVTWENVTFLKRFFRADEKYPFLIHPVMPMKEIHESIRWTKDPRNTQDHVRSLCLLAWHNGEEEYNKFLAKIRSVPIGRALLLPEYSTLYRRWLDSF
# Mtb MbtI inh = inhibitors of Mycobacterium tuberculosis siderophore enzyme MbtI; P9WFX0; purified MbtI enzyme, fluorescence intensity read-out; inhibition, %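 (about 17 µg/mL by stock and volumes)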; 0.89% of 100,000 active; AID 493033;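 active = above 50% in both replicates, above 80% if mildly self-fluorescent; inactive = the rest, strongly fluorescent compounds included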;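 note: 0% = mean of negative and 100% = mean of positive controls; one replicate is shown; some compounds called inactive have numbers as strong as hits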
# Polio RdRp inh intensity = second read-out of Polio RdRp inh, no call of its own (marks repeat the call); % elongation; measured here: total intensity read-out; formula for this scale not given here;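 total fluorescence in place of polarization; lower means less elongation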
# Starred values were filed as active, the others as inactive; · = not tested or not shown; & = joins results of further samples.
SMILES,MenB inh,Polio RdRp inh,Polio RdRp inh intensity,Mtb MbtI inh
O=S(=O)(NNc1ccccc1)c1cccs1,2,102,100,29
O=C(COC(=O)c1cc(Cl)ccc1O)c1ccc(S(=O)(=O)N2CCCCC2)cc1,7,100,95,-38
CC1(C)Cc2cccc(OCc3nc4ccccc4[nH]3)c2O1,·,102,107,-3
NC(=O)c1nnc(C(Nc2ccc(F)cc2)c2cccc(Cl)c2)o1 (configuration not stated),16,100,104,2
FC(F)(F)c1cc(-c2ccco2)nc2c(-c3ccccc3)cnn12,-9,101,103,-1
CC1CCN(c2ccc(N3CCN(S(C)(=O)=O)CC3)nn2)CC1,-19,108,107,-2
Cc1sc2nc(SCC(=O)c3ccc(O)c(O)c3)[nH]c(=O)c2c1C,-65,101,101,80
Cc1ccc(NC(=O)c2c3c(nc4ccccc24)CCCC3)cc1,-15,104,108,·
COc1ccc(OC)c2[nH]c(=O)c(CCNC(=O)C(C)C)cc12,3,100,102,3
Cc1[nH]n(-c2cccc(Cl)c2)c(=O)c1N=O,-40,95,78,12
Cc1c(NC=C(C#N)C#N)c(=O)n(-c2ccccc2)n1C,-14,104,101,6
Cc1ccc(-c2csc(C3=C(O)CN(C4CCCC4)C3=N)n2)cc1,10,100,92,-12
Cc1cc(C)c(N=Cc2nc(-c3ccccc3)oc2O)c(C)c1,·,103,108,-11
Cc1ccc(C(O)c2nccn2C)o1 (configuration not stated),0,97,107,·
CCOC(=O)C1C(=O)C=C(Nc2sc3c(c2C#N)CCCC3)CC1c1cccc(OC)c1 (configuration not stated),-37,107,111,·
O=c1[nH]cc(NCc2ccccc2)c(=O)[nH]1,15,109,120,-7
C=CCN(CC=C)S(=O)(=O)c1ccc(NC(=O)c2cccs2)cc1,11,96,99,25
CC1(C)CC(=O)c2cnc(NC3OC(=O)c4ccccc43)nc2C1 (configuration not stated),-24,102,105,·
CCNC(=O)CN1C(=O)COc2ccc(C)cc21,-14,101,101,-12
CC(=NCCc1c(C)[nH]c2ccccc12)c1c(C)[nH]n(-c2nc3ccccc3s2)c1=O,-7,107,108,·
COCCn1c(N)c(N(Cc2ccccc2)C(=O)C2CC3C=CC2C3)c(=O)[nH]c1=O (configuration not stated),-10,101,100,10
Cc1noc2ncn(CC(=O)NCc3ccco3)c(=O)c12,-12,103,101,-7
O=C1CCCC(O)=C1N=Nc1cc(C(F)(F)F)ccc1OCC(F)(F)F,-67,104,93,11
O=c1c2ccccc2nc(SCc2ccc3c(c2)OCO3)n1-c1ccccc1,-16,104,105,·
CC1CN(C(=O)COC(=O)CC2c3ccccc3CCN2S(=O)(=O)c2ccccc2)CC(C)O1 (configuration not stated),-7,106,109,-7

# In the list so far, these have a Cl atom:
SMILES,MenB inh,Polio RdRp inh,Polio RdRp inh intensity,Mtb MbtI inh
O=C(COC(=O)c1cc(Cl)ccc1O)c1ccc(S(=O)(=O)N2CCCCC2)cc1,7,100,95,-38
NC(=O)c1nnc(C(Nc2ccc(F)cc2)c2cccc(Cl)c2)o1 (configuration not stated),16,100,104,2
Cc1[nH]n(-c2cccc(Cl)c2)c(=O)c1N=O,-40,95,78,12

# Ordered by heavy-atom count (smallest number first): seven of the compounds above
SMILES,MenB inh,Polio RdRp inh,Polio RdRp inh intensity,Mtb MbtI inh
Cc1[nH]n(-c2cccc(Cl)c2)c(=O)c1N=O,-40,95,78,12
CCNC(=O)CN1C(=O)COc2ccc(C)cc21,-14,101,101,-12
Cc1ccc(-c2csc(C3=C(O)CN(C4CCCC4)C3=N)n2)cc1,10,100,92,-12
O=c1c2ccccc2nc(SCc2ccc3c(c2)OCO3)n1-c1ccccc1,-16,104,105,·
O=C(COC(=O)c1cc(Cl)ccc1O)c1ccc(S(=O)(=O)N2CCCCC2)cc1,7,100,95,-38
CC(=NCCc1c(C)[nH]c2ccccc12)c1c(C)[nH]n(-c2nc3ccccc3s2)c1=O,-7,107,108,·
CCOC(=O)C1C(=O)C=C(Nc2sc3c(c2C#N)CCCC3)CC1c1cccc(OC)c1 (configuration not stated),-37,107,111,·

# Other results.
SMILES,MenB inh,Polio RdRp inh,Polio RdRp inh intensity,Mtb MbtI inh
CCOC(=O)c1cc(NC(=O)N(CC)C2CCCCC2)c(C)nc1C,12,101,105,2
O=C(c1cn(Cc2ccccc2)c2ccccc12)C1CC1,-23,106,96,·
COc1cccc(NS(=O)(=O)c2ccc(CN3C(=O)c4cccnc4C3=O)cc2)c1,-11,103,103,-11
Cc1ccc2c(CC(=O)OCc3cc(Cl)cc4c3OCOC4)coc2c1,-25,101,100,-6
CC(C)n1c(CN2CCN(c3cccc(Cl)c3)CC2)nc2c1c(=O)n(C)c(=O)n2C,15,101,101,-2
CC(C)NC(=O)COc1ccc(-c2nn(C)c(=O)c3ccccc23)cc1,7,100,103,18
CCOc1ccc(Nc2c(S(=O)(=O)c3ccccc3)cnc3ccc(OCC)cc23)cc1,-20,101,101,-12
Cc1ccc2oc(=O)c3cnn(CC(=O)Nc4cccnc4)c3c2c1,-4,102,106,-6
CCOC(=O)c1c(C)c(C#N)c(NC(=O)c2ccc(Cl)cc2Cl)n1-c1ccc(C)cc1,-5,111,109,-8
COc1ccc(C2CC(=O)n3nc(-c4ccccc4)nc3S2)cc1OC (configuration not stated),8,101,106,-6
Nc1cc(-c2ccccc2)[nH]n1,-26,103,102,-12
COc1ccc(CSc2nnc(SC(C)C(N)=O)s2)cc1 (configuration not stated),-12,106,113,-3
Cc1ccc(C)c(OCC(=O)Nc2ccccc2C#N)c1,-18,101,104,-16
COc1ccc2c(COC(=O)CNS(=O)(=O)c3ccccc3)cc(=O)oc2c1,-16,100,104,103
Clc1cccc(-c2nnc(-c3ccccc3)o2)c1,-1,101,102,-101
O=C(O)CC(Nc1ncnc2ccccc12)C(=O)O (configuration not stated),-6,105,103,11
Cc1cc(C(=O)NCc2ccc(N3CCN(C)CC3)cc2)nn1C,-2,102,104,-8
Cc1ccc(C)c(NC2=NCCCS2)c1,-14,103,104,6
CCC(C)NS(=O)(=O)c1ccc(-n2cnnn2)cc1 (configuration not stated),26,100,102,6
Cc1ccccc1-c1noc(CSc2ncccn2)n1,-2,104,110,-6
O=C(CSC(=O)c1ccccc1)Nc1ccc2ccccc2c1,·,102,101,17
CCn1c(SCC(=O)N(C)CC(=O)Nc2ccccc2Cl)nnc1-c1ccco1,0,103,108,-22
O=C(/C=C/c1ccco1)Nc1cccc(C(F)(F)F)c1,-12,102,103,17
O=C(C(Sc1nnc(C2CC2)n1C1CC1)c1ccccc1)N1CCOCC1 (configuration not stated),-11,102,105,-8
Cn1c(-c2cccs2)c(CNC(=O)NCc2ccccc2)c2ccccc21,-14,105,105,17

# Further entries follow.
SMILES,MenB inh,Polio RdRp inh,Polio RdRp inh intensity,Mtb MbtI inh
O=C(O)C1CC=CCC1C(=O)N(Cc1ccccc1)c1ccccc1 (configuration not stated),-33,102,100,-10
C=CCNC(=O)C(C)(C)Oc1ccc(Cl)cc1,1,101,104,-10
O=C(COC(=O)c1ccc(Cl)cc1)NC1CC1,-8,95,97,11
CCOC(=O)N1CCC(NC(=O)c2cc3cc4ccc(OC)cc4nc3o2)CC1,-5,102,102,118
O=C1CCC(=O)N1CCn1c2ccccc2c2nc3ccccc3nc21,-18,102,102,-3
COc1ccc(CCC(=O)Nc2n[nH]c3nc4cc(OC)ccc4cc23)cc1,3,101,104,0
CCOC(=O)Nc1ccc2c(CN(C)CC(=O)Nc3cccc(C)c3C)cc(=O)oc2c1,4,·,·,91
CCn1c(-c2cccs2)c(CN(CCOC)C(=O)Nc2ccccc2)c2ccccc21,-18,102,104,62
N#Cc1c(SCC(=O)c2ccc(F)cc2)nsc1SCC(=O)c1ccc(F)cc1,-24,110,136,-1
CC(=O)OCC1OC(n2ccc3ccccc32)C(OC(C)=O)C(OC(C)=O)C1OC(C)=O (configuration not stated),28,102,102,-7
NNC(=S)Nc1ccc(C(F)(F)F)cc1Cl,-72,103,94,9
Cc1ccc(-n2c(C)c(Cc3ccccc3)[nH]c2=O)cc1,-1,99,94,-22
Cc1ccccc1CN1CCC(O)CC1,-21,104,106,-6
O=C(CCSCc1ccc(Cl)cc1)Nc1ccc(F)cc1,·,102,96,0
Cc1nc(Nc2ccccc2)nc2c1ncn2-c1ccccc1,13,98,102,12
COc1ccc(N2CN=c3s/c(=C\C=C\c4ccccc4)c(=O)n3C2)cc1OC,0,101,102,-2
C#CCn1c(=NC(=O)C2COc3ccccc3O2)sc2cc(Br)ccc21 (configuration not stated),-10,101,96,2
O=C(O)COc1ccc2nsnc2c1,-51,103,101,90
CCc1cc(-c2n[nH]c(C(=O)O)c2-c2nc(C)cs2)c(O)cc1O,27,101,101,1
CCOc1cccc(=NC2CCCCC2)c2c(C)n(C)c(C)c12,-31,95,94,-3
COc1ccc(CN2CCCC2C(=O)Nc2ccc(OC)c(OC)c2)cc1OC (configuration not stated),-23,99,101,-13
COc1ccc2cc3cc(C(=O)NCCC4=CCCCC4)sc3nc2c1,-23,105,110,-44
CC1CN(C(=O)c2ccncc2)CC(C)O1 (configuration not stated),1,100,103,4
O=S(=O)(NC1CCN(Cc2ccccc2)CC1)c1ccc(-n2cccn2)cc1,5,100,102,-6
CC(=O)Nc1ccc(OCc2ccccc2)cc1,-23,105,94,·

# The final five compounds of the section above open the next one:
SMILES,MenB inh,Polio RdRp inh,Polio RdRp inh intensity,Mtb MbtI inh
COc1ccc(CN2CCCC2C(=O)Nc2ccc(OC)c(OC)c2)cc1OC (configuration not stated),-23,99,101,-13
COc1ccc2cc3cc(C(=O)NCCC4=CCCCC4)sc3nc2c1,-23,105,110,-44
CC1CN(C(=O)c2ccncc2)CC(C)O1 (configuration not stated),1,100,103,4
O=S(=O)(NC1CCN(Cc2ccccc2)CC1)c1ccc(-n2cccn2)cc1,5,100,102,-6
CC(=O)Nc1ccc(OCc2ccccc2)cc1,-23,105,94,·
O=C(CN(C(=O)c1csnn1)c1ccccc1)NCc1ccc2c(c1)OCO2,1,102,102,-7
CCOC(=O)c1ccc2nc(C(F)(F)F)nc(N3CCc4ccccc4C3)c2c1,-13,101,104,-5
N#Cc1ccc(C#CCOC(=O)c2ccccc2)cc1,9,106,108,-10
COc1ccc(C(CNC(=O)c2ccccc2)N2CCCC2)cc1 (configuration not stated),13,104,100,17
NC(=O)CSc1ncnc2c1cnn2-c1ccccc1,-20,101,102,14
COCc1cc(OC(=O)N(C)C)nc(-c2ccncc2)n1,-12,115,117,-14
CN(C)S(=O)(=O)c1ccc(N2CCOCC2)c(C(=O)Nc2ccc3c(c2)OCCO3)c1,4,100,105,5
O=C(NC12CC3CC(CC(C3)C1)C2)c1cncc(O)c1,-15,100,102,15
O=C(O)CC(NS(=O)(=O)c1cccc2nsnc12)C(=O)O (configuration not stated),-53,103,99,17
C=C1[C@@H](O)C2O[C@]3(CCC(/C=C/[C@@H](C)[C@@H]4CC(C)=C[C@@]5(O[C@H](C[C@@](C)(O)C(=O)O)CCC5O)O4)O3)CCC2O[C@@H]1C(O)C[C@H](C)C1O[C@@]2(CCCCO2)CC[C@H]1C (some centres not stated),11,101&99,103&102,6
CCOc1cc2c(cc1OCC)C(CC(=O)O)N(C(=O)Nc1ccc(OC)cc1)CC2 (configuration not stated),8,100,101,27
S=c1[nH]nc(-c2cccs2)n1C1CCCCC1,-21,102,104,9
O=S(=O)(c1ccccc1)N1CCn2cccc2C1c1ccccc1 (configuration not stated),-1,105,112,1

# Some values from above.
# MenB inh with CN(C)S(=O)(=O)c1ccc(N2CCOCC2)c(C(=O)Nc2ccc3c(c2)OCCO3)c1 → 4
# MenB inh with O=C(CN(C(=O)c1csnn1)c1ccccc1)NCc1ccc2c(c1)OCO2 → 1
# Polio RdRp inh with CCOC(=O)c1ccc2nc(C(F)(F)F)nc(N3CCc4ccccc4C3)c2c1 → 101
# Mtb MbtI inh with NC(=O)CSc1ncnc2c1cnn2-c1ccccc1 → 14
# MenB inh with C=C1[C@@H](O)C2O[C@]3(CCC(/C=C/[C@@H](C)[C@@H]4CC(C)=C[C@@]5(O[C@H](C[C@@](C)(O)C(=O)O)CCC5O)O4)O3)CCC2O[C@@H]1C(O)C[C@H](C)C1O[C@@]2(CCCCO2)CC[C@H]1C (some centres not stated) → 11
